Env fusion inh = blocks HIV Env-driven cell-cell fusion; hit rate 1.1% among 360,000; HeLa-JRFL Env/CEM21 cell fusion, luciferase; inhibition, % at 12.3 µM;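 active = mean replicate inhibition score of at least 50 and every replicate individually at or above 50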;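 also: 0% = plate neutral controls and 100% = maraviroc near 300 nM; one replicate is shown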
Yeast UUG start = alters start codon recognition fidelity in yeast; S. cerevisiae UUG-firefly luciferase reporter, luminescence/redox ratio; activity score, % at 18.7 µM; hit rate 0.13% among 350,000;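 active = replicate mean at a twofold rise or more, about +100% in these data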;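 also: firefly luciferase made from a UUG start codon reports start codon fidelity; reporter light over untreated wells divided by growth signal over untreated wells; some hits fall short of that in this replicate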
Active calls of the source: *; [ ] = remark or other dose.

Screening CC(C)NC(=O)N[C@@H]1CC[C@@H](CCn2cc(-c3ccccc3)nn2)O[C@H]1CO returned Env fusion inh 3.1[16.7 µM] and Yeast UUG start 13.7.
`C[C@H](CO)N1C[C@H](C)[C@H](CN(C)S(=O)(=O)c2ccccc2)OCCCC[C@H](C)Oc2ccc(NS(=O)(=O)c3ccc(F)cc3)cc2C1=O` gave Env fusion inh 38.6[16.7 µM] and Yeast UUG start -24.1.
Screening C[C@@H]1CN([C@H](C)CO)S(=O)(=O)c2ccc(-c3ccc(C#N)cc3)cc2O[C@H]1CN(C)Cc1cccc(F)c1 returned Env fusion inh 24.0[16.7 µM] and Yeast UUG start -7.1.
For C[C@H]1CCCCO[C@@H](CN(C)Cc2ccc(C(F)(F)F)cc2)[C@@H](C)CN([C@@H](C)CO)C(=O)c2cc(NS(=O)(=O)c3ccc(Cl)cc3)ccc2O1 the results were Env fusion inh 17.9[16.7 µM] and Yeast UUG start 4.5.
For C[C@@H]1CN([C@@H](C)CO)C(=O)c2cc(NS(=O)(=O)c3cn(C)cn3)ccc2O[C@@H](C)CCCCO[C@H]1CN(C)C(=O)C1CCCCC1 the results were Env fusion inh -5.3[16.7 µM] and Yeast UUG start -4.9.
Screening C[C@@H]1CCCCO[C@H](CN(C)S(=O)(=O)c2ccccc2)[C@@H](C)CN([C@@H](C)CO)C(=O)c2cc(NS(=O)(=O)c3cccs3)ccc2O1 returned Env fusion inh -53.4[16.7 µM] and Yeast UUG start -4.4.
COC(=O)C[C@H]1C=C[C@H](NS(=O)(=O)c2ccc(OC)cc2)[C@H](CO)O1 was read as Env fusion inh 0.3[16.7 µM] and Yeast UUG start -13.9.
`C[C@@H]1CN([C@@H](C)CO)C(=O)Cc2cc(NS(C)(=O)=O)ccc2O[C@@H]1CN(C)C(=O)Nc1ccc2c(c1)OCO2` gave Env fusion inh 1.3[16.7 µM] and Yeast UUG start -30.2.
Screening COc1ccc(-c2ccc([C@@H]3[C@@H](C#N)N(C(=O)NC(C)C)[C@H]3CO)cc2)cc1 returned Env fusion inh 8.1[16.7 µM] and Yeast UUG start -13.8.
For O=C(CN1CCOCC1)N[C@@H]1CC[C@H](CCNS(=O)(=O)c2ccccc2F)O[C@H]1CO the results were Env fusion inh 13.4[16.7 µM] and Yeast UUG start -2.7.
For O=C(N[C@H]1CC[C@H](CCn2cc(-c3ccc(F)cc3)nn2)O[C@H]1CO)c1cnccn1 the results were Env fusion inh 10.2[16.7 µM] and Yeast UUG start -8.7.
For O=C(Nc1ccc(S(=O)(=O)Nc2ncccn2)cc1)c1ccc(Br)cc1 the results were Env fusion inh 7.3 and Yeast UUG start -8.4.
Screening O=C(C[C@@H]1CC[C@H](NS(=O)(=O)c2ccc(F)cc2)[C@H](CO)O1)N1CCN(c2ccccc2)CC1 returned Env fusion inh -2.0[16.7 µM] and Yeast UUG start 0.0.
C[C@H](O)C#Cc1cnc2c(c1)C(=O)N([C@@H](C)CO)C[C@@H](C)[C@@H](CN(C)C(=O)c1ccccc1)O2 was read as Env fusion inh -8.3[16.7 µM] and Yeast UUG start -10.1.
For COc1ccc(NC(=O)Nc2cccc3c2O[C@@H](CN(C)C(=O)Nc2cccc4ccccc24)[C@@H](C)CN([C@H](C)CO)C3=O)cc1 the results were Env fusion inh -22.1[16.7 µM] and Yeast UUG start -8.0.

Entries above that have a cyano group (2):
Screening C[C@@H]1CN([C@H](C)CO)S(=O)(=O)c2ccc(-c3ccc(C#N)cc3)cc2O[C@H]1CN(C)Cc1cccc(F)c1 returned Env fusion inh 24.0[16.7 µM] and Yeast UUG start -7.1.
Screening COc1ccc(-c2ccc([C@@H]3[C@@H](C#N)N(C(=O)NC(C)C)[C@H]3CO)cc2)cc1 returned Env fusion inh 8.1[16.7 µM] and Yeast UUG start -13.8.

Molecules shown so far that have two or more sulfur atoms (2):
`C[C@H](CO)N1C[C@H](C)[C@H](CN(C)S(=O)(=O)c2ccccc2)OCCCC[C@H](C)Oc2ccc(NS(=O)(=O)c3ccc(F)cc3)cc2C1=O` gave Env fusion inh 38.6[16.7 µM] and Yeast UUG start -24.1.
Screening C[C@@H]1CCCCO[C@H](CN(C)S(=O)(=O)c2ccccc2)[C@@H](C)CN([C@@H](C)CO)C(=O)c2cc(NS(=O)(=O)c3cccs3)ccc2O1 returned Env fusion inh -53.4[16.7 µM] and Yeast UUG start -4.4.

Continued:
Screening Cc1noc(C)c1NC(=O)N[C@H]1C=C[C@H](CC(=O)N2CCCCC2)O[C@H]1CO returned Env fusion inh -17.1[16.7 µM] and Yeast UUG start -5.7.
Cn1cnc(S(=O)(=O)N[C@@H]2CC[C@@H](CC(=O)Nc3ccccc3)O[C@H]2CO)c1 was read as Env fusion inh 11.4[16.7 µM] and Yeast UUG start -3.9.
Screening C[C@H](CO)N1C[C@H](C)[C@@H](CN(C)Cc2ccc3c(c2)OCO3)OCCCC[C@H](C)Oc2ccc(NC(=O)CCC(F)(F)F)cc2C1=O returned Env fusion inh -28.4[16.7 µM] and Yeast UUG start 16.8.
C[C@@H]1CCCCO[C@@H](CN(C)Cc2ccc(C(=O)O)cc2)[C@@H](C)CN([C@H](C)CO)C(=O)c2cc(NC(=O)Cc3ccccc3)ccc2O1 was read as Env fusion inh -3.0[16.7 µM] and Yeast UUG start -3.1.
Cc1ccc(S(=O)(=O)N[C@H]2CC[C@@H](CCNC(=O)C3CCCC3)O[C@H]2CO)cc1 was read as Env fusion inh 1.3[16.7 µM] and Yeast UUG start 18.8.
COc1ccc(NC(=O)N(C)C[C@@H]2OCCCC[C@@H](C)Oc3ccc(NC(=O)CCC(F)(F)F)cc3C(=O)N([C@@H](C)CO)C[C@H]2C)cc1 was read as Env fusion inh -14.8[16.7 µM] and Yeast UUG start 33.6.
For C[C@@H]1CN([C@H](C)CO)S(=O)(=O)c2ccc(C#Cc3ccncc3)cc2O[C@@H]1CN(C)C(=O)c1ccncc1 the results were Env fusion inh -37.9[16.7 µM] and Yeast UUG start -10.0.
COCC(=O)Nc1ccc2c(c1)C(=O)N(C)C[C@H](OC)[C@H](C)CN(CCc1ccccc1)[C@@H](C)CO2 was read as Env fusion inh 43.8[16.7 µM] and Yeast UUG start 22.0.
Screening COc1ccc(NC(=O)Nc2cccc3c2O[C@H](CN(C)S(=O)(=O)c2ccc(Cl)cc2)[C@H](C)CN([C@H](C)CO)C3=O)cc1 returned Env fusion inh 2.4[16.7 µM] and Yeast UUG start -6.9.
Screening C[C@@H]1CN([C@@H](C)CO)C(=O)Cc2cc(NC(=O)C3CC3)ccc2O[C@H]1CN(C)C(=O)Nc1ccc(C(F)(F)F)cc1 returned Env fusion inh -26.1[16.7 µM] and Yeast UUG start 3.2.
Screening C[C@H](CO)N1C[C@H](C)[C@@H](CN(C)Cc2ccc3c(c2)OCO3)OCCCC[C@H](C)Oc2ccc(NC(=O)c3ccccc3)cc2C1=O returned Env fusion inh 3.3[16.7 µM] and Yeast UUG start 4.4.
`C[C@H](CO)N1C[C@H](C)[C@H](CN(C)S(=O)(=O)c2ccc(F)cc2)Oc2c(NS(=O)(=O)c3ccc(F)cc3)cccc2C1=O` gave Env fusion inh 2.6[16.7 µM] and Yeast UUG start 7.0.
`C[C@@H]1CCCCO[C@H](CN(C)Cc2ccc(Cl)c(Cl)c2)[C@@H](C)CN([C@H](C)CO)C(=O)c2cc(NS(=O)(=O)c3ccc(Cl)cc3)ccc2O1` gave Env fusion inh -12.4[16.7 µM] and Yeast UUG start 0.2.
C[C@@H]1CCCCO[C@@H](CN(C)C(=O)Nc2ccccc2)[C@H](C)CN([C@H](C)CO)C(=O)c2cc(NC(=O)Nc3ccc(F)cc3)ccc2O1 was read as Env fusion inh -11.6[16.7 µM] and Yeast UUG start 14.7.
Screening Cc1ccc(-c2ccc3c(c2)O[C@@H](CN(C)C(=O)C2CC2)[C@H](C)CN([C@@H](C)CO)S3(=O)=O)cc1 returned Env fusion inh 1.5[16.7 µM] and Yeast UUG start 20.2.
Screening C/C=C/c1cnc2c(c1)C(=O)N([C@@H](C)CO)C[C@@H](C)[C@@H](CN(C)Cc1cncnc1)O2 returned Env fusion inh -12.9[16.7 µM] and Yeast UUG start -7.0.
For CCCNC(=O)N1C[C@H](O)COC[C@H]2O[C@H](CC(=O)NCCCN3CCOCC3)CC[C@@H]21 the results were Env fusion inh 8.6[16.7 µM] and Yeast UUG start -9.9.
C[C@@H]1CN([C@H](C)CO)C(=O)c2cccc(NC(=O)Nc3ccc4c(c3)OCO4)c2O[C@H]1CN(C)Cc1ccc(C(=O)O)cc1 was read as Env fusion inh 20.4[16.7 µM] and Yeast UUG start -7.4.
`COC(=O)c1c2oc(c1C(=O)OC)C(=O)N(C)Cc1cn(nn1)C[C@@H](Cc1ccccc1)NC(=O)N[C@H](CO)CC2` gave Env fusion inh -19.4[16.7 µM] and Yeast UUG start -23.1.
For COc1ccc(S(=O)(=O)N(C)C[C@@H]2Oc3ccc(NC(=O)Nc4cccc5ccccc45)cc3C(=O)N([C@H](C)CO)C[C@H]2C)cc1 the results were Env fusion inh -27.4[16.7 µM] and Yeast UUG start -16.3.
For O=C(CC1CC1)N[C@H]1CC[C@@H](CCNS(=O)(=O)c2ccc(Cl)cc2)O[C@H]1CO the results were Env fusion inh 15.5[16.7 µM] and Yeast UUG start -9.6.
C[C@H]1CN([C@@H](C)CO)C(=O)Cc2cc(NC(=O)Cc3cn(C)c4ccccc34)ccc2O[C@@H]1CN(C)C(=O)Nc1ccc(C(F)(F)F)cc1 was read as Env fusion inh 7.0[16.7 µM] and Yeast UUG start -4.7.
For C[C@H]1CN([C@@H](C)CO)S(=O)(=O)c2ccc(C#Cc3ccc(F)cc3)cc2O[C@@H]1CN(C)S(=O)(=O)c1ccc(F)cc1 the results were Env fusion inh 13.5[16.7 µM] and Yeast UUG start -24.6.
For C[C@H](CO)N1C[C@H](C)[C@H](CN(C)Cc2ccc3c(c2)OCO3)Oc2ccc(NC(=O)C3CC3)cc2CC1=O the results were Env fusion inh -1.3[16.7 µM] and Yeast UUG start -12.1.
CCCC#Cc1cnc2c(c1)C(=O)N([C@H](C)CO)C[C@H](C)[C@@H](CN(C)Cc1ccccc1)O2 was read as Env fusion inh -6.0[16.7 µM] and Yeast UUG start 9.9.
`C[C@@H]1CN([C@@H](C)CO)C(=O)c2cc(-c3cccc(F)c3)cnc2O[C@@H]1CN(C)Cc1ccccn1` gave Env fusion inh 8.5[16.7 µM] and Yeast UUG start -22.5.
C[C@H](CO)N1C[C@H](C)[C@H](CN(C)Cc2ccc3c(c2)OCO3)Oc2c(NC(=O)Nc3ccc4c(c3)OCO4)cccc2C1=O was read as Env fusion inh -22.4[16.7 µM] and Yeast UUG start -1.1.
For C[C@H](CO)N1C[C@H](C)[C@H](CN(C)C(=O)c2cccnc2)Oc2ncc(-c3ccccc3)cc2C1=O the results were Env fusion inh 5.6[16.7 µM] and Yeast UUG start 4.2.
`C[C@H]1CN([C@@H](C)CO)S(=O)(=O)c2ccc(-c3cncnc3)cc2O[C@@H]1CN(C)C(=O)CC1CC1` gave Env fusion inh 0.7[16.7 µM] and Yeast UUG start -6.9.
Screening O=C(C[C@@H]1C[C@H]2c3cc(NS(=O)(=O)c4ccc(F)cc4)ccc3O[C@H]2[C@@H](CO)O1)NCc1cccc(F)c1 returned Env fusion inh 3.8[16.7 µM] and Yeast UUG start 7.8.
`Cc1noc(C)c1S(=O)(=O)Nc1ccc2c(c1)C(=O)N([C@H](C)CO)C[C@@H](C)[C@H](CN(C)S(=O)(=O)c1ccc(Cl)cc1)O2` gave Env fusion inh -34.2[16.7 µM] and Yeast UUG start -8.9.
Screening O=C(C[C@@H]1C[C@@H]2c3cc(NC(=O)Nc4ccc(C(F)(F)F)cc4)ccc3O[C@@H]2[C@H](CO)O1)NCc1ccccn1 returned Env fusion inh 7.8[16.7 µM] and Yeast UUG start -16.8.
`COc1cccc(S(=O)(=O)N[C@H]2CC[C@H](CC(=O)NC3Cc4ccccc4C3)O[C@@H]2CO)c1` gave Env fusion inh 0.7[16.7 µM] and Yeast UUG start -4.4.
CCCN(C)C[C@H]1OCCCC[C@H](C)Oc2ccc(NS(=O)(=O)c3ccc(F)cc3)cc2C(=O)N([C@@H](C)CO)C[C@H]1C was read as Env fusion inh -24.3[16.7 µM] and Yeast UUG start 9.9.
Screening CC(C)C#Cc1ccc2c(c1)O[C@@H](CN(C)C)[C@H](C)CN([C@@H](C)CO)S2(=O)=O returned Env fusion inh 11.3[16.7 µM] and Yeast UUG start 15.1.
C[C@H](CO)N1C[C@H](C)[C@@H](CN(C)Cc2ccc(Oc3ccccc3)cc2)Oc2ccc(N(C)C)cc2CC1=O was read as Env fusion inh -2.9[16.7 µM] and Yeast UUG start -4.0.
For C[C@H](CO)N1C[C@H](C)[C@@H](CN(C)Cc2ccc(-c3ccccc3)cc2)Oc2ccc(NC(=O)CCCCCC(=O)Nc3ccccc3N)cc2CC1=O the results were Env fusion inh 24.7[16.7 µM] and Yeast UUG start 4.4.
`C[C@@H]1CCCCO[C@@H](CN(C)C(=O)Cc2ccccc2)[C@H](C)CN([C@@H](C)CO)C(=O)c2cc(NC(=O)c3ccncc3)ccc2O1` gave Env fusion inh 1.2[16.7 µM] and Yeast UUG start 21.3.
C[C@@H]1CCCCO[C@H](CN(C)Cc2ccc(Cl)c(Cl)c2)[C@@H](C)CN([C@H](C)CO)C(=O)c2cc(NS(C)(=O)=O)ccc2O1 was read as Env fusion inh -23.6[16.7 µM] and Yeast UUG start 1.1.
COc1ccc(S(=O)(=O)Nc2ccc3c(c2)C(=O)N([C@H](C)CO)C[C@H](C)[C@@H](CN(C)C(=O)Nc2ccccc2)OCCCC[C@H](C)O3)cc1 was read as Env fusion inh -77.6[16.7 µM] and Yeast UUG start -8.0.
Screening Cc1cccc(NC(=O)Nc2ccc3c(c2)C(=O)N(C)[C@H]2CC[C@@H](CC(=O)O)O[C@@H]2CO3)c1 returned Env fusion inh -7.9[16.7 µM] and Yeast UUG start -3.4.

Some of the compounds tested. The share of hits here may be higher or lower than overall.
